Bioassay records: PubChem, National Center for Advancing Translational Sciences (NCATS)
gsp antag = antagonists of gsp mutant (McCune-Albright syndrome); gsp-mutant cells, cAMP HTRF, 30 min; control for the full effect not named in the record; Potency, µM (doses to about 76.9 µM), without a hit: top-dose activity change, negative = inhibition, usual class: inhibitors; 0.4% of 340,000 active; active = falling curve of any shape with a large fitted effect; inconclusive = falling curve, mostly with a smaller effect; inactive = flat or rising curve; cell line not stated here;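 note: intracellular cAMP measured with PDE inhibitor Ro 20-1724 present during compound exposure; potency is the fitted concentration of half-maximal effect; % is set by controls: 0 for no effect and ±100 for the full control effect; nearly all actives have a fitted effect of over 65% in size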
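G418-selected cells were plated in DMEM/10% FBS for 16-24 h at 37C, then treated with compounds plus the PDE inhibitor […] (300 uM solution added) for 30 min at 37C. Intracellular cAMP was measured by HTRF after 30 min lysis at room temperature.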
gsp agonist = gsp mutant agonism; 0.13% of 340,000 active; gsp mutant cells, cAMP HTRF, 30 min; control for the full effect not named in the record; Potency, µM (series often up to 76.9 µM), for inactives: at the top dose activation (cAMP increase), usual class: activators; active = well fitted activation curve with a large enough effect; inconclusive = small, poorly fitted or top-dose-only effect, or another doubt; inactive = no such curve, though single readings can be large or run the other way; cell line not stated here;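 note: phosphodiesterase inhibitor Ro 20-1724 added with compounds to block cAMP breakdown; potency is the fitted concentration of half-maximal effect; nearly all actives have a fitted effect of over 60% in size; about a fifth of the inactives were tested at one dose only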
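Cells stably selected in G418 were plated at 2000/well, grown 16-24 hr, then given compounds in DMSO with the PDE inhibitor […] (300 uM solution added) for 30 min at 37C; cAMP was read by HTRF.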
Menin-MLL FL inh = displaces fluorescein MLL peptide from human menin; Fluorescence polarization, fluorescein-MLL peptide displacement from menin; FP activity change, % at 61.4 µM; 290,000 tested, under 10 active; AID 1766; inconclusive = falling polarisation curve, or a change in total fluorescence; inactive = total fluorescence flat and polarisation flat or rising; no compound was filed as active; the % refers to the polarisation; negative = inhibition;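 note: % of control where 0% means no effect; inhibitors lower the polarisation; unlabelled MLL peptide was the positive control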
Sfp inh = blocks B. subtilis Sfp PPTase activity; Potency, µM, without a hit: max response, negative = inhibition, most hits filed as inhibitors; 3.5% of 310,000 active; Q9F4F7; Biochemical Sfp PPTase activity, qHTS; active = well fitted inhibition curve with a large enough effect; inconclusive = small, poorly fitted or top-dose-only effect, or another doubt; inactive = no such curve, though single readings can be large or run the other way;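 note: the enzyme is Sfp with the accession as filed and its product quenches rhodamine fluorescence; potency is the fitted concentration of half-maximal effect; 0% = enzyme reaction without inhibitor and -100% = no enzyme wells; top concentration of the series not given in the record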
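Fluorescence-quenching assay with 15 nM Sfp, 5 uM rhodamine-CoA and 12.5 uM BHQ-2-labelled ybbR peptide in pH 7.6 Hepes/MgCl2 buffer. Enzyme was pre-incubated with compound for 15 min at room temperature. Rate was taken from the 30-min fluorescence change (525/598 nm).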
ClpP mod = qHTS Assay for Activators of ClpP; ATP-dependent Clp protease proteolytic subunit (Bacillus subtilis (strain 168)), P80244; purified B. subtilis ClpP, FRET peptide cleavage, 20 min; Potency, µM (titrated, usually from 57.5 µM), for inactives: at the highest dose activity change, negative = active; 1.9% of 340,000 active; AID 651965, 2013; active = well fitted falling curve with a large enough effect; inconclusive = small, poorly fitted or top-dose-only effect; inactive = no such curve, though single readings can be large or run the other way; note: potency is the fitted concentration of half-maximal effect; the source files actives as falling curves though it sought activators and does not explain the sign; nearly all actives have a fitted effect of over 65% in size; many hits overshoot -100%
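FRET quenching reversal measured ClpP activation: 10 microg/mL B. subtilis ClpP at pH 8 with the FRET-FV decapeptide, read at 430 nm after 320 nm excitation. The 20-min minus 0-min signal was scaled between DMSO/no-enzyme wells and ADEP (5.8 microM final).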
D2 potentiator = positive allosteric modulators of human D2 dopamine receptor; AID 624464; 0.23% of 360,000 active; P14416; potentiation, % (test concentration not listed); DiscoveRx D2 beta-arrestin cells, luminescence, 90 min; 100% = 57 uM dopamine signal; active = potentiation of 50% or more; inconclusive = 30% to 50%; inactive = 30% or less;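 note: compound concentration not given in the record; tested on top of an EC20 dose of dopamine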
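D2 cells co-treated with compound plus 50 nM dopamine (EC20) for 90 min at 37 deg C to detect potentiation. Beta-arrestin recruitment was read as enzyme-fragment luminescence after 1 h at ambient temperature. Full response was set by 57 uM dopamine.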
TRPV1 potentiator = potentiators of human vanilloid receptor 1 (TRPV1); TRPV1-expressing cells, Fluo-8 calcium influx, capsaicin EC20 potentiation; host cell line not named in the record; control for the full effect not named in the record; 0.02% of 320,000 active; potentiation, % at 8.33 µM; Q8NER1; AID 540277; active means potentiation above 80%; inconclusive means 30% to 80%; inactive means below 30%; note: 0% is about no effect
Target sequence (Q8NER1 whole entry, looked up): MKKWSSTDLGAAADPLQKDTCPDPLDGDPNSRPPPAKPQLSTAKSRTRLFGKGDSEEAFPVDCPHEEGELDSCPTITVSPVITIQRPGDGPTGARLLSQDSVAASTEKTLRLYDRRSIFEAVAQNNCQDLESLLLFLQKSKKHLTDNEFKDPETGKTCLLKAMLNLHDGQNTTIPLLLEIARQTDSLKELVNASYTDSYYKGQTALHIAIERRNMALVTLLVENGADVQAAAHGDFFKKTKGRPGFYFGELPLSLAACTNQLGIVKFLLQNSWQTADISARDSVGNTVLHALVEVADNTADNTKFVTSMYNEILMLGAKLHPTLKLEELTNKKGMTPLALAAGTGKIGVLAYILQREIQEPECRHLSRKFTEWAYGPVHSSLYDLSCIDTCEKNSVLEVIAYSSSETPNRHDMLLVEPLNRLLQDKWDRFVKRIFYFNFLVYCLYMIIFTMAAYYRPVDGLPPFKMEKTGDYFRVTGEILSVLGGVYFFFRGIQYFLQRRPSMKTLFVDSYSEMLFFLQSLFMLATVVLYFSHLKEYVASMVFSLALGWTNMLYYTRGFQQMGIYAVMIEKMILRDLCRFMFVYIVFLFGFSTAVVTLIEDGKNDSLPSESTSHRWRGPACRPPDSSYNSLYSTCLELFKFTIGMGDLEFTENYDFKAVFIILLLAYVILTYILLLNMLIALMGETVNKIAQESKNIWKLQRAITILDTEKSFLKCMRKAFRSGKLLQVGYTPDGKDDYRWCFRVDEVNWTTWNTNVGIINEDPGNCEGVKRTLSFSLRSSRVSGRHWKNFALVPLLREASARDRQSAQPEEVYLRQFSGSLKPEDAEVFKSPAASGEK
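Cells expressing TRPV1 were dye-loaded with Fluo-8 and read kinetically: 10 s baseline, 3 min after compound (agonist portion), then 2 min after EC20 capsaicin (allosteric enhancer portion). Calcium-bound dye fluorescence at 480/520 nm.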
Numbers without * were called inactive; ? = inconclusive; . = no result given; [ ] = dose if it differs, or a comment. Hits appear at their usual frequency. Share with any hit: about 5.1%.

SMILES	gsp antag	gsp agonist	Menin-MLL FL inh	Sfp inh	ClpP mod	D2 potentiator	TRPV1 potentiator
COc1ccc2oc(=O)c(C(=O)NCc3ccccn3)cc2c1	9.7%	-37.4%[inhibitor]	2.1	?	10µM*	-3.9	-10.5
COc1cc(C=C2C(=O)OC(C)(C)OC2=O)ccc1OCC(=O)Nc1ccccc1	0.1%	-20.8%	-0.9	17.7%	-4.8%	-5.4	0.4
Cc1noc(C)c1COC(=O)c1ccc(S(=O)(=O)NCc2ccco2)cc1	6.3%	?	-1.5	-19.6%	-1.2%	9.9	6.1
O=C(NCc1cccc(C(F)(F)F)c1)c1cccc(S(=O)(=O)N2CCN(Cc3ccccc3)CC2)c1	-5.1%	0.3%	.	?	-2.2%	-15.1	1.0
COc1ccc(O)c(CN2CCC(n3nccc3NC(=O)CCOc3ccccc3)CC2)c1	-2.8%	4.0%	.	-7.0%	-4.4%	-13.0	15.8
COc1ccc(CN2C(=O)C(CC(=O)NCCN3CCOCC3)CC(C(=O)N3CCOCC3)=C2C)cc1 (stereo unspecified)	.	?	.	.	-1.6%	2.6	.
COCC(COS(N)(=O)=O)Cc1ccccc1 (stereo unspecified)	11.1%	29.7%	-3.7	9.8%	-0.7%	-0.8	-6.1
CCOc1ccc(NC(=O)CN(C)C(=O)c2sc3ccccc3c2Cl)cc1OCC	-30.1%	-2.3%	.	.	1.1%	-28.5	?
Cc1cc(C)nc(Nc2ccccc2Cl)n1	-2.3%	-27.3%[15.4 µM]	-0.2	-5.6%	1.1%	-3.9	-4.9
CCOC(=O)CSCc1csc(CC(=O)Nc2ccccc2C)n1	6.6%	0.1%	.	.	1.1%	3.5	.
Cc1noc(C)c1C(=O)N1CCOCC1	5.2%	?	2.9	9.1%	-17.3%	-1.3	2.9
COC(=O)c1ccccc1NC(=O)CN(C)S(=O)(=O)c1cc(C)ccc1OC	10.1%	6.4%	-3.4	2.2%	-22.0%	-12.3	11.9
CCOC(=O)c1cc(-c2ccccc2)sc1NC(=O)COC(=O)c1cccc(S(N)(=O)=O)c1	5.2%	-11.2%[15.4 µM]	0.2	18.3%	.	-4.6	1.5
Cc1c(N(C)C(=O)C2CCCN2S(=O)(=O)c2ccccc2)c(=O)n(-c2ccccc2)n1C (stereo unspecified)	-3.4%	-4.0%	0.7	10.5%	0.5%	-5.5	-12.0
CCOc1ccc(C(=O)NCCC2=CCCCC2)cc1OCC	-0.8%	?	-1.3	-0.2%	.	-22.7	-0.7
COC(=O)/C=C/c1cccc([C@H]2[C@@H]3C=CC[C@@H](C)[C@@H]3C(=O)N2Cc2ccccc2)c1	-22.5%	.	1.2	-12.1%	1.6%	.	.
CC(NC1CCCC1)C(=O)Nc1ccccc1-c1ccccc1 (stereo unspecified)	6.0%	-39.7%[inhibitor]	1.0	-15.8%	-3.2%	-10.1	-3.8
Cc1ccc2cccc(OCC(=O)N3CCc4ccccc43)c2n1	4.0%	7.6%[15.4 µM]	-0.2	15.8%	.	-6.1	0.9
CCCCn1c(SCC(=O)N(CC)C2CCS(=O)(=O)C2)nnc1C(CC)N(C)C (stereo unspecified)	4.5%	19.0%	-0.6	6.1%	1.2%	11.7	6.3
COc1ccc(N2CCN(c3ncnc4scc(-c5ccccc5)c34)CC2)cc1	?	16.8%	0.2	-5.6%	.	-1.4	-1.5
Cc1ccc(Nc2nc3ccccc3[nH]2)nc1	-6.5%	17.4%	-0.9	-16.5%	35.5µM*	-16.4	16.6
CCc1nc(NCCN)c(C#N)c2c1CSC(C)(C)C2	8.6%	5.5%	9.6	-8.3%	22.4µM*	-17.0	-2.8
CCc1nc(SCC(=O)Nc2cc(OC)ccc2OC)c2c(C)c(C)sc2n1	-10.2%	-12.6%[15.4 µM]	.	5.4%	.	-5.2	4.2
Cc1sc(NC(=O)Cn2nc(C(F)(F)F)cc2C)c(C(=O)OC(C)C)c1C	-3.1%	15.3%	5.3	-6.5%	463.6%	0.5	-14.0
COc1ccc(C2N=C(c3ccccc3)NC(c3ccccc3)=N2)cc1	9.7%	10.2%	0.8	5.0%	-1.2%	-11.9	29.0

(continued)
SMILES	gsp antag	gsp agonist	Menin-MLL FL inh	Sfp inh	ClpP mod	D2 potentiator	TRPV1 potentiator
Cc1cc(=O)[nH]c(SCC(N)=O)c1C#N	10.2%	-31.8%[inhibitor]	-0.2	-20.3%	1.3%	-12.5	3.7
CC(=O)N1c2ccccc2N(Cc2ccc(C)cc2C)C(=O)C1(C)C	9.3%	-0.5%	-2.2	-12.3%	1.1%	-2.2	-7.9
O=C(c1ccccc1)N1CCN(c2ncnc3c(-c4ccccc4)nsc23)CC1	-2.7%	-22.3%	5.3	-3.4%	1.3%	-34.3	8.2
O=C(NNc1ccc([N+](=O)[O-])cn1)Nc1ccc(N=Nc2ccccc2)cc1	-10.8%	-92.5%[inhibitor]	.	.	?	?	.
CC1(C)NC(=O)N(CCOCCSc2ccccc2)C1=O	2.0%	22.3%	2.6	17.6%	-3.1%	-7.7	-9.0
CCOC(=O)C(=CNc1ccc(Cl)cn1)C(=O)OCC	-19.3%	2.6%[15.4 µM]	0.8	7.6%	-1.7%	6.5	-15.6
O=C(O)CSc1nnc(-c2cc3ccccc3o2)n1-c1ccccc1	2.1%	?	-1.5	-4.8%	22.4µM*	-9.6	?
CC(=O)c1ccc(NC(=O)CN2C(=O)NC3(CCc4ccccc43)C2=O)cc1 (stereo unspecified)	-1.8%	0.7%	.	.	3.5%	-4.1	.
Cc1ccc(NC(=O)CCNC(=O)c2ccco2)cc1Cl	0.5%	-0.9%	6.0	12.0%	.	-5.0	17.6
COc1ccccc1OCCC(=O)OCC(=O)Nc1ccc2c(c1)OCO2	-8.2%	-5.1%	.	.	-1.0%	-8.6	.
COc1cccc(CNCCc2c[nH]c3ccccc23)c1OCc1ccccc1	-3.2%	0.2%[15.4 µM]	-0.2	?	1.1%	-13.0	-8.9
Cc1ccc2c(c1)C(O)(CC(=O)c1cccc(-n3cccc3)c1)C(=O)N2 (stereo unspecified)	-12.1%	18.2%[15.4 µM]	-6.0	6.9%	.	-4.5	17.4
COc1ccc(NC(=O)c2cccc(S(=O)(=O)N3CCc4ccccc43)c2)c(OC)c1	.	?	.	.	1.3%	-4.1	.
CCCCn1c(N)c(N(CCOC)C(=O)c2cc(-c3ccc(F)cc3)nc3ccccc23)c(=O)[nH]c1=O	1.9%	-25.7%[15.4 µM]	.	.	.	0.5	?
O=C(NCC1CCCO1)c1ccc(NC(=O)c2ccc(Br)cc2)cc1 (stereo unspecified)	2.2%	2.4%[15.4 µM]	.	.	.	-4.6	.
CN(C(=O)Cc1c[nH]c2ccccc12)C(C(=O)Nc1ccc2c(c1)OCO2)c1ccccc1 (stereo unspecified)	-5.3%	24.8%[15.4 µM]	-0.7	7.4%	-2.0%	-7.4	-6.0
COc1ccc(Cc2nnc(NC(=O)c3ccccc3[N+](=O)[O-])s2)cc1	-8.6%	14.9%	0.6	7.6%	0.1%	-7.3	-3.5
O=S(=O)(Nc1cccc(S(=O)(=O)N2CCCCC2)c1)c1ccccc1F	-2.3%	-5.0%[15.4 µM]	.	.	-16.3%	0.4	.
COc1cc(-c2nnc(CSc3nnc(N)s3)o2)cc(OC)c1OC	7.3%	?	.	12.3%	-1.2%	-12.3	-11.6
CC(=O)N(CCCNC(=O)c1ccccc1)C(=O)c1ccccc1	9.5%	.	.	.	-4.3%	-42.1	9.5
N#CCC(=O)Nc1ccc(C(=O)OCc2ccccc2Oc2ccccc2)cc1	2.6%	6.7%	1.0	12.9%	.	-0.1	2.3
Cn1cc(CCNCc2cn[nH]c2-c2ccc(-c3ccccc3)cc2)cn1	-3.2%	4.3%[15.4 µM]	0.7	-5.6%	.	-0.2	6.1
CCOCCCNC(=S)N(CCN(C)C)Cc1cc2cc3c(cc2[nH]c1=O)OCCO3	1.1%	2.9%	-1.0	-25.3%	3.9%	-4.2	-0.2
